Sfp PPTase inh: qHTS Assay for Inhibitors of Bacillus subtilis Sfp phosphopantetheinyl transferase (PPTase); 4'-phosphopantetheinyl transferase ffp (Bacillus subtilis), Q9F4F7; Biochemical Sfp PPTase activity, qHTS; Potency, µM, for the others: max response, negative = inhibition, actives largely listed as inhibitors; 310,000 tested, 3.5% active; AID 1490, 2009; active = well fitted inhibition curve with a large enough effect; inconclusive = small, poorly fitted or top-dose-only effect, or another doubt; inactive = no such curve, though single readings can be large or run the other way;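 also: the enzyme is Sfp with the accession as filed and its product quenches rhodamine fluorescence; potency is read from the fitted curve at half-maximal effect; 0% = enzyme reaction without inhibitor and -100% = no enzyme wells; top concentration of the series not given in the record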
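Step 1, compound plus 15 nM Sfp-PPTase, 15 min, room temperature. Step 2, add rhodamine-CoA (5 uM) and BHQ-2-YbbR (12.5 uM). Step 3, read 525/598 nm fluorescence at 0 and 30 min.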
D2 agonist: Beta-Arrestin HTS for Positive Allosteric Modulators of the Human D2 Dopamine Receptor: Agonists | activation, % (concentration not given with the values) | AID 624465, 2012 | 360,000 tested, 0.084% active | DiscoveRx PathHunter D2 beta-arrestin, luminescence, 90 min; 100% = 57 uM dopamine signal | D(2) dopamine receptor (Homo sapiens), P14416; in the data active = activation above about 40%; inconclusive = about 15% to 40%; inactive = below about 15%; also: compound concentration not given in the record; the text of the record calls up to 30% inactive
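DiscoveRx PathHunter D2 beta-arrestin cells (2,100/well) attached overnight, then compound-stimulated 90 min at 37 C in HBSS/10 mM HEPES/0.1% Tween-20 buffer; beta-galactosidase complementation read by luminescence after 1 h at ambient temperature. Dopamine 57 uM final (EC100) as control.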
Six1-Eya2 blk: qHTS Assay for Inhibitors of the Six1/Eya2 Interaction; AlphaScreen GST-Six1/His-Eya2 binding, biochemical; active compounds read low; control for the full effect not named in the record; activity change, % (concentration not given with the values); 360,000 tested, 0.56% active; AID 651725, 2012; in the data active = activity change below about -65%; inconclusive = about -30% to -65%; inactive = above about -30%; also: % is scaled to controls: 0 for no effect and ±100 for the full control effect
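AlphaScreen with GST-Six1 and His-Eya2 (5X mix: 250 nM and 500 nM), glutathione donor and nickel acceptor beads; buffer 50 mM Tris pH 8.0, 300 mM NaCl, 1 mM TCEP; 1 h at 37 C in the dark.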
TRPV1 PAM: HTS Assay for Compounds that Act as Potentiators of the Vanilloid Receptor 1 | potentiation, % at 8.33 µM | 320,000 tested, 0.02% active | AID 540277, 2011 | TRPV1-expressing cells, Fluo-8 calcium influx, capsaicin EC20 potentiation; host cell line not named in the record; control for the full effect not named in the record | Transient receptor potential cation channel subfamily V member 1 (Homo sapiens), Q8NER1; active means potentiation above 80%; inconclusive means 30% to 80%; inactive means below 30%; also: 0% is about no effect
Target sequence (Q8NER1 whole entry, looked up): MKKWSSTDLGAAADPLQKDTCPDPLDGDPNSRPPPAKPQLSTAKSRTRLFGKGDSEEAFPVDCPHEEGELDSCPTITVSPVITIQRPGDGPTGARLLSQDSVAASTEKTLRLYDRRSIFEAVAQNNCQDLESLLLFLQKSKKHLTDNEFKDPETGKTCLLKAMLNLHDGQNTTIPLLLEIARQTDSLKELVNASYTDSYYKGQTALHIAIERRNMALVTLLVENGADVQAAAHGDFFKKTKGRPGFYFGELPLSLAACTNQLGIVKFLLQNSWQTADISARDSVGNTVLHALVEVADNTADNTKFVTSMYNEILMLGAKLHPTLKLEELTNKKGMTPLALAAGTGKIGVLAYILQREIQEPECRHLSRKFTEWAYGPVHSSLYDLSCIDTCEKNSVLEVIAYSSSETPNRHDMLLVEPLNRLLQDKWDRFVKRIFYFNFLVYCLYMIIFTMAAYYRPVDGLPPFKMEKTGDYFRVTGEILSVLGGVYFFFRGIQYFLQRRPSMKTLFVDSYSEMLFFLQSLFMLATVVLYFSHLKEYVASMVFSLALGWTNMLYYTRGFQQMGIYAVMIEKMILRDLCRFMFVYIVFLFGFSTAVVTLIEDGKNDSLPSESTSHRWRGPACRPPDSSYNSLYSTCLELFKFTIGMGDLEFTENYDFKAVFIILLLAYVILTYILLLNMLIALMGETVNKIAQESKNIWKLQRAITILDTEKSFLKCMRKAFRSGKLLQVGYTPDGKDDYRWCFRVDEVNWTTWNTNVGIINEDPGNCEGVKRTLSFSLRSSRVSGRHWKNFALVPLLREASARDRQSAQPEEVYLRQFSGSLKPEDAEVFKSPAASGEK
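TRPV1-expressing cells were cultured overnight at 35.5C and loaded with Fluo-8 calcium dye for 40 to 90 min at room temperature. After a 10 s baseline, compound was added and calcium influx was read kinetically for 3 min (ex 480/em 520 nm).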
CtBP-E1A inh: qHTS Assay for Inhibitors of the CtBP/E1A Interaction; AlphaScreen GST-E1A/His-CtBP binding, 1536-well; active compounds read low; control for the full effect not named in the record; activity change, % (test concentration not listed); 340,000 tested, 0.49% active; in the data active means activity change below about -65%; inconclusive means about -30% to -65%; inactive means above about -30%; also: % is scaled to controls: 0 for no effect and ±100 for the full control effect
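AlphaScreen with 125 nM GST-E1A and 125 nM His-CtBP (5X stocks) in Tris pH 8.0, 300 mM NaCl, BSA, Tween 20, TCEP. Compounds preincubated 2 h at 37 deg C, then glutathione donor/nickel acceptor beads added for 1 h at 37 deg C in dark.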
D2 PAM: Beta-Arrestin HTS for Positive Allosteric Modulators of the Human D2 Dopamine Receptor: Potentiators; D(2) dopamine receptor (Homo sapiens), P14416; DiscoveRx D2 beta-arrestin cells, luminescence, 90 min; 100% = 57 uM dopamine signal; potentiation, % (no concentration beside the values); 360,000 tested, 0.23% active; AID 624464, 2012; active = potentiation of 50% or more; inconclusive = 30% to 50%; inactive = 30% or less;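 also: compound concentration not given in the record; tested on top of an EC20 dose of dopamine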
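D2 cells co-treated with compound plus 50 nM dopamine (EC20) for 90 min at 37 deg C to detect potentiation. Beta-arrestin recruitment was read as enzyme-fragment luminescence after 1 h at ambient temperature. Full response was set by 57 uM dopamine.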
PINK1 expr mod: A Quantitative High throughput Screen to Identify Chemical Modulators of PINK1 Expression; 410,000 tested, 0.2% active; AID 624263, 2012; PINK1 immunofluorescence, high-content cytometry, 24 h; Potency, µM (doses to about 76.6 µM), inactives show at the highest dose activation (PINK1 increase), actives largely listed as activators; active = well fitted activation curve with a large enough effect; inconclusive = small, poorly fitted or top-dose-only effect; inactive = flat fitted curve, though single readings scatter; cell line not stated here;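 also: potency is read from the fitted curve at half-maximal effect; % of control where 0% means no effect; nearly all actives have a fitted effect of over 65% in size; a mitochondrial uncoupler was the plate control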
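Decision-based qHTS: stable cells, 24 h exposure to five compound concentrations, CCCP as control. Fixed cells stained for PINK1 plus nuclear, mitochondrial and cell markers, cytometer read.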
Numbers without * were called inactive; ? = inconclusive; . = not tested or not shown; & = joins results of further samples; [ ] = another dose, or the depositor's remark.

Sequence of screens – Sfp PPTase inh, D2 agonist, Six1-Eya2 blk, TRPV1 PAM, CtBP-E1A inh, D2 PAM, PINK1 expr mod
O=C1CC(C(=O)N2CCc3ccccc32)CN1c1cccc(C(F)(F)F)c1 (centres undefined)
    ., 0.3, -2.2, -16.1, 11.7, -17.9, 14.3%
COc1ccccc1N1CCN(C(=O)c2sc3ncnc(N4CCN(c5ccccn5)CC4)c3c2C)CC1
    -2.9%, 6.4, -19.6, -5.2, -11.4, 13.4, -1.3%
COc1ccc(CSc2nnnn2-c2ccc(O)cc2)cc1F
    -10.1%, 8.9, -0.1, ?, 7.9, 6.9, -0.6%
COc1ccc(-c2cc(C(F)(F)F)nc(SCC(=O)N(C)Cc3cn(C)nc3C)n2)cc1OC
    -24.1%, -6.2, -6.6, -34.2, 1.1, -0.7, 2.4%
O=C(COC(=O)Cc1cccs1)Nc1cccc(S(=O)(=O)N2CCOCC2)c1
    ., -3.2, -2.4, -13.0, 4.0, -1.2, -0.7%
COc1ccc(-c2csc3nc(C)nc(N4CCN(C(C)=O)CC4)c23)cc1OC
    12.1%, 0.6, 1.4, 8.1, -16.2, -1.7, 0.3%
O=C(O)CSC(=S)N1CCCC1
    6.4%, -1.2, 2.8, 1.5, 7.2, 1.6, -0.1%
COc1ccc(C2Nc3ccccc3C(=O)N2O)cc1CN1CCOCC1 (centres undefined)
    2.9%, -0.8, 3.6, 7.4, 3.5, -5.9, 2.7%
COC(=O)c1cc(S(=O)(=O)N2CCN(c3cccc(C)c3)C(C)C2)c[nH]1 (centres undefined)
    17.2%, -3.9, -7.0, -19.0, -6.2, -0.8, 2.1%&3.4%
Cc1ccc(C(C)C)c(Oc2nnnn2-c2ccccc2)c1
    -9.7%, -2.4, 22.5, -2.9, 33.1, -9.0, 3.2%[38.3 µM]
CCN(CC)C(=O)CSc1n[nH]c(=O)n1CCc1ccccc1
    1.5%, -3.3, 9.4, 7.1, 0.4, -7.7, -0.6%
Cc1sc2nc(COC(=O)c3ccc(N4CCCC4)c([N+](=O)[O-])c3)[nH]c(=O)c2c1C
    -11.8%, 0.8, 1.5, 6.7, -4.2, -25.3, 4.8%
CCCCOc1ccc(C(=O)NCC(=O)NC(C)CCc2ccccc2)cc1 (centres undefined)
    -7.6%, -2.8, 3.3, 18.3, -5.9, -10.7, -0.4%
CC(C)CNC(=O)COCc1cc(-c2ccc3c(c2)OCO3)on1
    3.3%, 0.8, -2.9, 6.3, 11.1, -2.3, 0.9%
COc1ccc(OC)c(S(=O)(=O)N2c3cc(F)ccc3CCC2C)c1 (centres undefined)
    5.7%, -0.3, 1.4, -1.3, -24.6, 2.2, ?
O=Nc1c(O)[nH]c2ccc(F)cc12
    19.8%, -3.4, -13.5, -1.9, -4.6, -8.2, -2.5%
Cc1ccc(SCC(=O)OCC(=O)NCCC2=CCCCC2)cc1
    ., -6.7, -9.0, -22.4, 6.2, -16.4, 0.7%
COc1ccc(/C=N/N(C)c2cc(=O)n(C)c(=O)[nH]2)cc1OC
    8.3%, 2.8, -23.3, 7.5, ?, -2.2, 1.0%
Cc1c(Cl)cccc1NC(=O)CC(C(=O)O)C1CCCO1 (centres undefined)
    5.7%, 0.8, 1.2, 28.5, 4.3, -15.3, .
COC(=O)c1sc(S(=O)(=O)N2CC(C)OC(C)C2)c(C(=O)OC)c1C (centres undefined)
    ., -5.9, 3.4, -8.3, 1.3, -1.9, -1.3%
CCOC(=O)c1c(NC(=O)CSc2nnc(-c3ccc(C)cc3)o2)sc(C(C)=O)c1C
    3.9%, -1.2, 2.9, 4.5, -2.1, -7.0, 2.7%[38.3 µM]
O=C(Nc1nnc(S(=O)(=O)N2CCCCCC2)s1)c1ccccc1F
    27.4%, -1.0, -4.2, -14.9, 0.1, -4.3, 1.4%&0.6%
O=C(Nc1ccc(NC(=O)C2CC2)nc1)c1ccco1
    1.2%, -1.5, -0.6, 27.7, 1.9, -1.3, -0.6%
Cc1cc(C)n(C(=O)CNC(=O)c2cccs2)n1
    7.4%, -1.7, 1.9, 0.1, 3.6, 9.3, 0.5%
O=C(COc1cc(Cl)c(Cl)cc1Cl)NC(=O)NC1CCCC1
    -7.5%, 4.4, 6.7, -7.0, -1.4, 9.8, -0.1%
Cc1cccc(NC(=O)c2ccc3ccccc3n2)c1C
    -14.5%, -0.4, 26.2, -23.2, 7.9, -6.2, -0.2%
O=C(NCc1ccccn1)c1c(O)c2c([nH]c1=O)CCCC2
    14.0%, -1.0, 4.5, -15.0, -6.3, -10.8, .
CC(=O)C1=C(C)NC(SCc2cccc3ccccc23)=C(C#N)C1c1ccco1 (centres undefined)
    50.1µM*, 0.2, -11.9, ?, -5.2, -12.8, 6.3%
CC(C)[C@@H](CSc1ccccc1)N1CCN(Cc2ccccc2)CCC1=O
    17.8%, 5.0, -4.2, 7.9, 7.0, -1.9, -0.1%
O=C(NC1CCCCC1)c1ccc(S(=O)(=O)N2CCOCC2)cc1
    7.8%, 0.6, 0.0, -5.1, 11.2, -7.4, 1.0%[38.3 µM]
CC(C)CCNC(=O)CCNS(=O)(=O)c1ccc(Cl)cc1
    -1.3%, -0.8, 5.3, 0.9, 11.1, 0.1, -1.0%[38.3 µM]
CCOC(=O)c1cc(-c2ccccc2)n(Cc2cc(CC)no2)n1
    ., 2.2, 4.4, 21.4, 15.2, 14.2, -1.3%
Brc1ccc2nc(C3CCCCC3)c(Cc3ccsc3)n2c1
    ., -3.9, 1.5, ., -0.1, -6.0, 27.6%
COc1cc(C(=O)NCCSc2ccccc2)cc(OC)c1OC
    6.0%, -4.0, -16.3, 18.4, -7.6, -7.8, -1.7%
Cc1cccc(-c2n[nH]c(=S)n2/N=C/c2ccc(C)o2)c1
    ?, 0.5, -7.0, 5.9, 4.3, 6.1, 5.1%
COc1cc(OC)c2c3c(c(C4CCCCC4)nc2c1)CCC3
    ., -1.4, -0.4, ., -9.8, -4.8, ?
CS(=O)(=O)N(CC(=O)N1CCOCC1)c1cccc([N+](=O)[O-])c1
    19.6%, 1.1, -2.0, -1.5, ., 5.9, -0.7%
COc1ccc(N2CCN(S(=O)(=O)CCNC(=O)COc3cccc(OC)c3)CC2)cc1
    27.4%, -3.3, -6.3, -10.9, -16.3, -7.2, 1.6%&-0.2%
CC1(Cc2cccc(C#N)c2)C(=O)Nc2c(Cl)cccc21 (centres undefined)
    ., -4.9, 2.5, ., 1.1, -12.0, -0.7%
NS(=O)(=O)c1cnccc1Nc1cccc(F)c1
    ., 2.0, 8.6, ., -2.7, -9.3, 0.6%
O=C(OCCOc1ccccc1)c1cc(S(=O)(=O)N2CCOCC2)c(Cl)cc1Cl
    ., 0.5, 3.7, ., -3.3, -17.1, 6.1%
CCC1CN(C(=O)N2CCC(C(=O)NCc3ccco3)CC2)c2ccccc2O1 (centres undefined)
    23.2%, 2.7, -3.7, -14.6, 4.8, 4.9, 1.2%&-1.1%
COc1cccc(CNn2c(-c3cccc(C)c3)nc3ccccc3c2=O)c1
    ?, 1.1, 5.6, -6.0, 10.3, -4.6, 3.3%[38.3 µM]
CCOCCCN(C(=O)CCC(=O)Nc1cc(C)on1)C(C(=O)NC(C)(C)C)c1ccccc1Cl (centres undefined)
    -2.1%, 0.2, 3.5, 13.5, -13.7, -3.4, -0.7%
CCCc1cc(C(N)=O)c(NC(=O)C2CCCO2)s1 (centres undefined)
    -80.4%, -1.1, -1.0, -0.5, 1.6, -0.4, 28.0%[38.3 µM]
CC(C)Cn1c(=O)[nH]c2ccccc21
    14.9%, -1.3, 4.2, 7.5, 1.5, -13.7, 2.3%
O=C(O)CCCCCN1C(=O)C(O)=C(C(=O)/C=C/c2ccccc2)C1c1cccc([N+](=O)[O-])c1 (centres undefined)
    18.1%, -4.7, -14.3, -0.9, 3.7, -3.9, 2.8%
O=C(O)c1cccc(N=C2NC(=O)C(CO)(CO)S2)c1
    -6.9%, -4.4, 1.0, -6.2, 3.9, -6.7, -0.6%
CS(=O)(=O)c1ccc(Cl)c(NC(=O)c2ccc3ccccc3c2)c1
    15.1%, -1.4, 4.8, -5.3, 0.0, -6.7, 6.4%
Cc1ccc(C(=O)N/N=C\c2cc3c(cc2Br)OCO3)cn1
    29.4%, -0.4, -2.1, -9.0, 7.6, -8.9, 4.8%
CC1(C(=O)NC2CCCC2)CCC(=O)N1Cc1ccccc1Cl (centres undefined)
    -2.0%, -2.5, 7.3, 6.9, 2.6, -2.0, 1.8%
C=CCN1CCN(C(=O)c2ccc(-c3ccccc3)cc2)CC1
    -2.3%, -5.3, 2.5, -24.8, -4.9, 1.6, 1.6%
O=C(Nc1cccc(C(F)(F)F)c1)c1csc([C@@H]2O[C@H](CO)[C@H](O)[C@H](O)[C@H]2O)n1
    ., -6.4, 1.3, ., 0.0, -8.3, 1.2%
c1csc(-c2nn3c(C4CCCCC4)nnc3s2)c1
    ., -2.5, 4.2, ., ., -9.1, 0.4%

Four entries from above, tab-delimited:
smiles	Sfp PPTase inh	D2 agonist	Six1-Eya2 blk	TRPV1 PAM	CtBP-E1A inh	D2 PAM	PINK1 expr mod
O=C(O)c1cccc(N=C2NC(=O)C(CO)(CO)S2)c1	-6.9%	-4.4	1.0	-6.2	3.9	-6.7	-0.6%
CS(=O)(=O)c1ccc(Cl)c(NC(=O)c2ccc3ccccc3c2)c1	15.1%	-1.4	4.8	-5.3	0.0	-6.7	6.4%
Cc1ccc(C(=O)N/N=C\c2cc3c(cc2Br)OCO3)cn1	29.4%	-0.4	-2.1	-9.0	7.6	-8.9	4.8%
CC1(C(=O)NC2CCCC2)CCC(=O)N1Cc1ccccc1Cl (centres undefined)	-2.0%	-2.5	7.3	6.9	2.6	-2.0	1.8%
